# Ecoli growth = E. coli growth inhibition, primary screen, OD600; Escherichia coli growth, 23 h; stronger effect = lower value; OD600 absorbance (concentration not given with the values); hit rate 0.21% among 330,000;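 active means OD600 absorbance below the run mean of sample wells minus 3.6 SD, in any replicate, cut at about 0.56 in these data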;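 further: stock transfer was 300 nL into about 60 µL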
# UCH37 inh = inhibitors of human UCH37 deubiquitinase, primary screen, biochemical, Ub-AMC cleavage, fluorescence | Ubiquitin carboxyl-terminal hydrolase isozyme L5 (Homo sapiens), Q9Y5K5 | purified proteasome/UCH37 | inhibition, % (no concentration beside the values) | hit rate 0.33% among 330,000 | AID 588478, 2011;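 active means mean of two replicates above 20%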;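 further: 0% = compound-free wells with enzyme and 100% = wells lacking proteasome; stock transfer was 100 nL into about 20 µL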
#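 Test system – human UCH37 enzyme supplied as purified proteasome complex · Incubation – 30 min preincubation with enzyme, 25 min cleavage at room temperature · Detection – AMC fluorescence from Ub-AMC cleavage, excitation 355 nm, emission 460 nm · Benchmarks – no-proteasome wells (full inhibition) and compound-free wells (no inhibition)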
# Vif A3G = inhibitors of Vif binding to APOBEC3G peptide, primary screen, biochemical, TR-FRET, GST-Vif 1-94, biotin-A3G peptide, dose response retest (AID 1117319); TR-FRET GST-Vif / biotin-A3G peptide binding; higher % means a stronger effect; test concentration not given here; strong numbers were not always called active; hit rate 0.57% among 260,000; inhibition, %; hits with a dose series show IC50 in µM;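 active means above the screen mean plus three standard deviations and confirmed in dose response; inconclusive means results disagree or hit not tested in dose response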;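 further: Vif residues 1-94 fused to GST binding biotinylated APOBEC3G peptide 110-148; 0% = full assay without inhibitor and 100% = GST in place of GST-Vif; retest series ran down from 100 µM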
# RanGTP-Imp inh = inhibitors of RanGTP-importin-beta interaction, primary screen, biochemical, FRET, CFP-Ran, YFP-importin-beta, homogeneous. Ran GTPase (GTP-bound) - importin-beta complex. cell-free CFP-Ran/YFP-importin-beta FRET ratio. inhibition, % (test concentration not listed). hit rate 1.1% among 300,000. AID 2216, 2009;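 active means most replicates above 15%; inconclusive means exactly half above 15%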;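 further: 0% = DMSO wells and 100% = Ran loaded with GDP instead of GTP; wells of about 40 µL received 100 nL stock; the first replicate is given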
# HNF4A DNA FP = change in binding of human HNF4A to DNA, primary screen, biochemical, fluorescence polarization, FITC-DNA. Hepatocyte nuclear factor 4-alpha (Homo sapiens), P41235. 1 h. activity change, % at 10 µM. hit rate 0.3% among 360,000. AID 1224865, 2016; in the data active means activity change above about 30%, passing the limit was not always enough;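 further: controls were the assay level and a saturating level of protein; the project sought stronger binding though the title names inhibitors; some compounds called inactive have numbers as strong as hits; positive values seem to mean higher polarization but the record does not say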
# Target sequence (P41235 whole entry, looked up): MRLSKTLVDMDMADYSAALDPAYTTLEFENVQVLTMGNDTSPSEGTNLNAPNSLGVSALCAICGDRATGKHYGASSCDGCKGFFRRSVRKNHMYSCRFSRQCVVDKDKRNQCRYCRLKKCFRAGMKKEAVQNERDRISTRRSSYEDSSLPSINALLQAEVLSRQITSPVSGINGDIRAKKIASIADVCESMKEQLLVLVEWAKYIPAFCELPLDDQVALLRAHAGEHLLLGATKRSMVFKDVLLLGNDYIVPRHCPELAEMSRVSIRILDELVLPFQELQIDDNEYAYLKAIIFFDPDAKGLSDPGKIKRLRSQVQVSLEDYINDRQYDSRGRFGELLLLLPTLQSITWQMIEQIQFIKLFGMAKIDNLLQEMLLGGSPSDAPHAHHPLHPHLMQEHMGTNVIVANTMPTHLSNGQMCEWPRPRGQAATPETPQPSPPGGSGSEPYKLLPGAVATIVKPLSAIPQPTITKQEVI
# FGF22 binding = binders of human FGF22 protein, primary screen, FGF22 synaptogenesis inhibitor project, biophysical, thermal shift, single point. calls only at 9.99 µM. Fibroblast growth factor 22 (Homo sapiens), Q9HCT0. recombinant FGF22 thermal shift, SYPRO orange fluorescence; percent of sucrose octasulfate shift, DMSO zero. hit rate 1.5% among 340,000. AID 651658, 2012;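 active means melting point raised past a set limit in the mean and every replicate; inconclusive means no clear call; three in four hits are not shown here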
# AF4-AF9 inh = inhibitors of AF4 peptide binding to AF9, primary screen, biochemical, AlphaScreen, biotin-AF4 peptide, FLAG-AF9, single point. Protein AF-9 (Homo sapiens), P42568. inhibition, % at 10 µM. hit rate 0.47% among 350,000. AID 651704, 2012;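 active means every replicate reaching a set inhibition limit, whatever the replicate mean, cut at about 25% in these data; inconclusive means mean inhibition reaches that limit but some replicates miss it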;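 further: 0% = plate neutral control median and 100% = total signal loss; the record names both 10 and 1 µM as test concentration; the first replicate is given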
# Target sequence (P42568 whole entry, looked up): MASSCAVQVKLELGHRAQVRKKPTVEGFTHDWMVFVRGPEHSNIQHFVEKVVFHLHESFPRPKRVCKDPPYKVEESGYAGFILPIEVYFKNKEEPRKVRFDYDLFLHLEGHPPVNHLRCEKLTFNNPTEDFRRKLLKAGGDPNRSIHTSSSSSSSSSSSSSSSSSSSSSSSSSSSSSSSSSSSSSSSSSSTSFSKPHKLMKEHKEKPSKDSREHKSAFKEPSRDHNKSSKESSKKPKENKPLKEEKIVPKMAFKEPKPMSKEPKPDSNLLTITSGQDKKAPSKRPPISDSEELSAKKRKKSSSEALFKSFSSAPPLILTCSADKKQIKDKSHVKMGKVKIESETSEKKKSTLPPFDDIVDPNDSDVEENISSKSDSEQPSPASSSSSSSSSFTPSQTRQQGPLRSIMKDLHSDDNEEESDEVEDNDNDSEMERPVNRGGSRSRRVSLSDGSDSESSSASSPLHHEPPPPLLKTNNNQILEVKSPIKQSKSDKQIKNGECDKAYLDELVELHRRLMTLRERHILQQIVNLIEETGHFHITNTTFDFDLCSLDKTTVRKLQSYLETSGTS
# The depositor's hits bear a star; i = inactive; ? = inconclusive; . = not tested or not shown. Only part of the results is shown; count on the stated rates, not on these rows.
SMILES,Ecoli growth,UCH37 inh,Vif A3G,RanGTP-Imp inh,HNF4A DNA FP,FGF22 binding,AF4-AF9 inh
Cc1ccccc1C(=O)Nc1cccc(-c2ccc(N3CCOCC3)nn2)c1,0.63,-1.0,-6%,-0.6,2.5,i,-2.2
CCc1ccccc1OCC(=O)OCC(=O)Nc1cc(C)on1,0.7,-0.3,-1%,.,3.6,i,0.4
COc1cc(CO)cc(Br)c1OCc1cccnc1,0.68,0.7,7%,-0.8,0.0,.,.
CCCCN(C(=O)CCC(=O)Nc1cc(C)on1)C(C(=O)NC(C)(C)C)c1cccc(OC)c1OC (stereo not drawn),0.67,0.3,.,4.5,3.3,.,.
CCc1cc(=O)oc2cc(OCC(=O)O)c(Cl)cc12,0.66,-22,0%,0.0,0.5,.,.
O=C(CCN1C(=O)c2ccccc2S1(=O)=O)Nc1ccccc1O,0.65,-0.3,-10%,-1.8,-0.4,i,-4.4
CC1=C(C(=O)N(C(C)C)C(C)C)CC(CC(=O)NC2CCCCC2)C(=O)N1CCCN1CCCC1=O (stereo not drawn),.,.,.,.,0.5,i,-2.3
c1ccc(Nc2nc(-c3ccccn3)cs2)cc1,0.65,-0.1,16%,-3.1,-2.3,.,.
Cc1ccc(C(=O)c2oc3ccccc3c2N)cc1,0.65,-8.2,.,-1.3,-0.9,.,.
COc1cc(CCC(=O)NNC(=O)c2ccc(Cl)cc2)cc(OC)c1OC,0.69,-2.2,3%,-1.4,0.9,i,-3.0
CCC(C)N1C(=O)N(c2cccc(Cl)c2)C(C)(O)CC1(C)C (stereo not drawn),0.67,-0.3,-3%,6.7,3.2,i,-1.0
Cc1cc(NC(=O)CCC(=O)N(Cc2ccco2)C(C(=O)NC2CCCC2)c2ccccc2F)no1 (stereo not drawn),0.72,-1.3,3%,0.8,-1.2,.,2.8
COc1cc(OC)cc(C(=O)N[C@H](C(=O)NC2CCCc3ccccc32)C(C)C)c1 (stereo partly drawn),0.74,-1.7,-14%,.,-3.8,i,-1.5
O=C(NCCCN1CCOCC1)c1ccc(CS(=O)(=O)c2ccc(Br)cc2)o1,0.71,-0.6,-4%,-2.9,0.7,.,-1.1
O=S(=O)(NCC1CCN(Cc2ccccc2)CC1)c1ccccc1C(F)(F)F,0.69,3.9,.,0.9,-0.3,i,2.6
COc1ccc(/C=N/n2cnnc2)cc1Oc1nc(Cl)ncc1F,.,.,-3%,3.5,-1.0,i,-0.4
O=C(O)CSCC(=O)NCc1cccc(C(F)(F)F)c1,0.7,5.4,4%,6.1,-1.9,i,-4.4
Cc1cc(C(=O)N/N=C/C=C/c2ccc(Br)cc2)n[nH]1,.,.,-3%,-0.2,-2.8,i,-4.9
O=C(c1cccc(Cl)c1)N1CCN(Cc2ccccc2)CC1,0.68,1.6,.,1.2,4.6,i,1.6
CC(C)n1cc(/C(N)=N/O)c(=O)n(Cc2ccccc2)c1=O,0.68,2.8,.,3.2,-0.7,i,-3.7
CCCNC(=O)c1n[nH]c(=O)c2ccccc12,0.76,4.1,0%,2.4,-1.6,.,.
COc1ccccc1NC(=S)NCc1ccccc1Cl,0.61,3.4,.,3.5,5.8,i,-1.6
COC(=O)c1ccc(Oc2cc(C)nc(-n3nc(C)cc3C)n2)cc1,0.74,0.8,-1%,2.3,-3.3,.,.
CC(=O)N1CCc2cc(S(=O)(=O)NCCCN3CCCCC3)ccc21,0.66,2.5,.,-0.9,1.6,i,-0.7
Cc1cccc(C)c1NC(=O)CNC(=O)CCCc1c[nH]c2ccccc12,0.69,0.5,-3%,-0.5,-1.1,i,-0.9

# Carrying on.
SMILES,Ecoli growth,UCH37 inh,Vif A3G,RanGTP-Imp inh,HNF4A DNA FP,FGF22 binding,AF4-AF9 inh
Cc1ccc(N(Cc2ccc(C(=O)NC3CCCCC3)cc2)S(C)(=O)=O)cc1C,0.69,2.3,4%,-1.3,0.4,.,.
COc1ccc(CC(=O)Nc2cccc(C)n2)cc1OC,0.71,-0.8,.,1.2,-0.5,i,-0.8
CSc1nc2c(cnn2-c2ccccc2)c(=O)n1N,0.66,0.3,-7%,0.7,1.1,i,-2.7
CCOc1ccccc1-n1c(SCC(=O)N2CCCC2)nnc1-c1ccoc1C,0.74,-2.2,-1%,-0.6,-0.8,.,.
O=[N+]([O-])c1cc(CN(CCO)CCO)ccc1O,0.7,5.5,2%,-2.1,-1.0,i,2.7
Cc1ccc(NS(=O)(=O)c2ccc3c(c2)CCN3C(=O)CCC(=O)O)cc1Cl,0.64,0.7,-2%,-2.4,-1.9,i,-7.0
CCOC(=O)CN1C(=O)N[C@@H](c2cccc(C(F)(F)F)c2)[C@H](C(C)=O)[C@H]1C,.,7.3,.,2.0,2.3,i,-9.3
Nc1c(N(Cc2ccccc2)C(=O)COc2ccc(F)cc2)c(=O)[nH]c(=O)n1Cc1ccccc1,0.71,2.7,.,?,-1.8,i,-1.8
O=C(C(=O)N1CCN(c2ccc(F)cc2)CC1)c1cn(CC(=O)N2CCOCC2)c2ccccc12,0.69,1.8,.,-0.8,-0.3,.,0.8
CCCN1CCN(CCCNC(=O)c2ccc3c(=O)n(CCc4ccccc4)c(=O)[nH]c3c2)CC1,0.66,-12,.,2.1,-0.4,i,2.2
Cc1ccc(C(=O)Nc2ccc(S(=O)(=O)N3CCCC3)cc2)s1,0.66,3.5,-3%,-1.4,-4.2,i,-6.7
O=C(NCCN1CCN(S(=O)(=O)c2ccccc2)CC1)C(=O)Nc1ccc(F)cc1,0.67,0.2,.,-0.6,-0.3,i,-0.7
NS(=O)(=O)c1ccc(NC(=O)/C=C/c2cccc(Cl)c2)cc1,0.66,2.2,6%,4.5,-0.4,i,-3.4
C=CC[C@@H](CC(=O)N(CCO)Cc1ccccc1)C(=O)NC[C@@H](OC(=O)[C@@H](CC=C)Cc1ccc(F)cc1)c1ccccc1,.,0.5,.,.,1.4,i,-1.7
COc1ccc(Nc2cc(C(=O)NCCCN3CCN(C)CC3)c3ccccc3n2)cc1,0.76,1.5,-3%,2.8,0.1,.,.
NS(=O)(=O)c1ccc(CCNC(=O)c2cccnc2)cc1,0.68,1.0,28%,3.0,-1.7,i,6.0
CCOC(=O)c1cnc(SC)nc1N,0.73,3.2,2%,-0.9,3.9,.,.
COc1ccc(OC)c(-c2cc(C(=O)NCCCn3ccnc3)no2)c1,0.7,-0.2,25%,?,0.4,.,.
CC1=CC(=O)N(c2cccc3c(N4C(=O)C=C(C)C4=O)cccc23)C1=O,0.72,2.5,-8%,.,-4.4,i,-3.9
CSc1nsc(N/N=C/c2ccc3c(c2)OCO3)c1C#N,.,.,.,20*,4.4,i,3.9
O=C1NCC(O)=C1C=NCCO,0.73,-0.8,6%,-1.8,-1.1,.,.
CCOC(=O)c1ccc(CN2C(=O)c3ccccc3S2(=O)=O)cc1,0.69,2.6,.,-2.4,2.6,i,-5.3
CCCCNc1nc(-c2ccccc2)c(C(=O)OCC)cc1C#N,0.76,-39,-3%,-1.8,0.5,.,.
COCCNc1nc(Oc2cccc(NC(C)=O)c2)c2sc(-c3ccccc3)cc2n1,.,.,.,.,-1.5,i,-0.1
C=C1CCN([C@@H](C)C(=O)OCc2cccc(C)c2)S(=O)(=O)c2ccccc21,.,1.9,-6%,-4.5,2.1,i,-2.1

# The list goes on:
SMILES,Ecoli growth,UCH37 inh,Vif A3G,RanGTP-Imp inh,HNF4A DNA FP,FGF22 binding,AF4-AF9 inh
CCOC(=O)c1ccc2[nH]c3c(c2c1)CCCC3NC=O (stereo not drawn),0.71,-4.6,.,?,1.3,i,-2.5
Cc1cnc(C(=O)OCC(=O)c2csc(N3CCCCC3)n2)cn1,0.7,12,30%,?,-7.5,.,.
CCN1C(=O)/C(=C/N2CCc3ccccc32)SC1=S,.,-1.3,2%,28*,50,.,.
CCNC(=S)N(CCc1c(C)[nH]c2ccccc12)Cc1cccnc1,0.67,3.2,-9%,0.1,3.3,i,17
CCOC(=O)N1CCN(C(=O)CSc2nnc(-c3ccc(Cl)s3)o2)CC1,0.76,1.1,.,1.8,.,.,.
CCOC(=O)c1sc(NC(=O)c2ccc(S(=O)(=O)N3CCOCC3)cc2)cc1C,0.68,-3.1,-1%,2.7,1.5,.,.
CC(C)CCOc1ccc(C(=O)NCCC(=O)N2CCOCC2)cc1,0.64,4.0,6%,7.4,-0.4,i,3.0
COc1ccc(NC(=O)Nc2cccs2)cc1Cl,0.55,0.6,3%,-3.8,8.3,i,0.6
COc1cc(C(=O)Nc2cc(-c3cn4cccnc4n3)ccc2C)cc(OC)c1OC,0.71,i,-4%,1.1,-1.0,.,-2.6
CCCN(C(=O)CN1C(=O)NC2(CCCCCC2)C1=O)C1CCS(=O)(=O)C1 (stereo not drawn),0.67,1.3,4%,-1.7,1.8,i,-1.5
Clc1ccc(CSc2nnc(-c3ccccn3)n2Cc2ccco2)cc1Cl,.,.,.,.,1.2,i,-1.7
O=C(CN1CCOCC1)Nc1c(Cl)cc(Cl)cc1Cl,0.64,5.3,5%,6.0,0.3,i,-1.0
O=C(CSCCc1ccccn1)Nc1ccccn1,0.66,-1.9,-3%,2.9,1.7,.,.
CCOC(=O)C1(Cc2ccc(OC)cc2)CCN(C(=O)[C@@H]2CCCN2C(C)=O)CC1,0.69,0.2,0%,1.7,9.2,i,12
O=C1CN2CCC1C/C2=C\c1ccnc2c(Cl)cccc12 (stereo not drawn),0.64,5.9,-5%,-2.7,1.9,i,5.4
CCOc1ccc(S(=O)(=O)Nc2cccc(C(=O)N3CCN(c4cccc(OC)c4)CC3)c2)cc1,0.72,1.5,-7%,0.9,3.9,i,-10
Cc1cc(NS(C)(=O)=O)c(=O)n(Cc2cccc(C(F)(F)F)c2)c1,.,.,1%,.,7.6,i,0.7
C=CCn1c(SC(C)CC)nc(O)cc1=O (stereo not drawn),0.68,5.5,-2%,-5.2,3.1,.,.
O=C(NC1CCN(S(=O)(=O)c2ccc(F)cc2)CC1)C1CCCCC1,0.64,-0.5,.,-4.4,0.8,i,-1.2
CC1=C(C(=O)Nc2cc(C)ccn2)C(c2ccc(C)cc2)C2=C(CCCC2=O)N1 (stereo not drawn),0.65,-175,-3%,-4.2,0.9,.,.
CCOC(=O)C1C(C)=C(Nc2ccc(OC)cc2)C(=O)N1c1ccc(OC)cc1 (stereo not drawn),0.73,-31,-8%,-2.8,-1.6,.,.
N/C(Cc1ccc(Cl)c(Cl)c1)=N\OC(=O)c1ccc(Br)o1,0.67,1.9,-7%,-1.8,-0.1,i,-2.8
O=C(CN1C(=O)NC2(CCCCCC2)C1=O)N1CCN(c2ccc(F)cc2)CC1,0.66,-1.6,7%,.,1.8,i,0.8

# Ordered by SMILES length (high to low): four of the compounds above.
SMILES,Ecoli growth,UCH37 inh,Vif A3G,RanGTP-Imp inh,HNF4A DNA FP,FGF22 binding,AF4-AF9 inh
Nc1c(N(Cc2ccccc2)C(=O)COc2ccc(F)cc2)c(=O)[nH]c(=O)n1Cc1ccccc1,0.71,2.7,.,?,-1.8,i,-1.8
CCOc1ccccc1-n1c(SCC(=O)N2CCCC2)nnc1-c1ccoc1C,0.74,-2.2,-1%,-0.6,-0.8,.,.
Cc1ccc(C(=O)Nc2ccc(S(=O)(=O)N3CCCC3)cc2)s1,0.66,3.5,-3%,-1.4,-4.2,i,-6.7
CC(C)n1cc(/C(N)=N/O)c(=O)n(Cc2ccccc2)c1=O,0.68,2.8,.,3.2,-0.7,i,-3.7
